TRPML1 blocker: blocks the human TRPML1 channel. TRPML1-inducible cells, Ca2+ dye fluorescence, FDSS; stronger effect = lower value; inhibition of EC80 agonist-evoked calcium signal. activity change, negative = inhibition, % (concentration not given with the values). 390,000 tested, 0.02% active. AID 624415; in the data active means activity change below about -50%; inconclusive means about -30% to -50%; inactive means above about -30%;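 also: stimulus is agonist 54-4 at its EC80 concentration; % is scaled to controls: 0 for no effect and ±100 for the full control effect; compound concentration not given in the record; the text of the record puts the active cut at -80%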
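Tet-induced TRPML1-DL cells loaded with Ca8 no-wash calcium dye were read kinetically on FDSS. Compound addition was followed by EC80 agonist 54-4 (4 uM final); inhibition was read over 110 s.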
PINK1 expr mod: changes PINK1 expression | PINK1 immunofluorescence, high-content cytometry, 24 h | Potency, µM (highest dose often 76.6 µM), for inactives: top-dose activation (PINK1 increase), hits mostly activators | 410,000 tested, 0.2% active | AID 624263; active = well fitted activation curve with a large enough effect; inconclusive = small, poorly fitted or top-dose-only effect; inactive = flat fitted curve, though single readings scatter; cell line not stated here;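 also: potency is read from the fitted curve at half-maximal effect; % of control where 0% means no effect; nearly all actives have a fitted effect of over 65% in size; a mitochondrial uncoupler was the plate control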
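Measures PINK1 amount and localization on or inside mitochondria by immunofluorescence. Stable cells get compounds at 5 concentrations for 24 hours before fixation and staining; CCCP controls included.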
TRPML1 agonist: agonists of human TRPML1 channel | Q9GZU1 | TRPML1-expressing cells, Ca2+ dye fluorescence, FDSS; host cell line not named in the record; reference of the full effect not given here | activation, % (concentration not given with the values) | 410,000 tested, 0.12% active | AID 624414; in the data active = activation above about 50%; inconclusive = about 30% to 50%; inactive = below about 30%; also: 0% is about no effect; the text of the record puts the active cut at 80%
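Tet-induced TRPML1-DL cells, 1,500 per well, cultured overnight, were loaded with a no-wash Ca2+ dye for 45–90 min. Calcium fluorescence was recorded on the FDSS for 110 s after compound addition, before the EC80 agonist (4 uM 54-4) was added.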
CtBP-E1A blk: CtBP/E1A binding inhibition | AlphaScreen GST-E1A/His-CtBP binding, 1536-well; stronger effect = lower value; control for the full effect not named in the record | activity change, % (no concentration beside the values) | 340,000 tested, 0.49% active | AID 651724; in the data active means activity change below about -65%; inconclusive means about -30% to -65%; inactive means above about -30%; also: % is scaled to controls: 0 for no effect and ±100 for the full control effect; compound concentration not given in the record
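GST-E1A and His-tagged CtBP (125 nM each as 5X stock) were preincubated with pin-transferred compound for 2 h at 37 °C in the dark, then glutathione donor and nickel acceptor beads were added for 1 h before AlphaScreen reading.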
D2 ag: human D2 receptor agonism in beta-arrestin assay | activation, % (test concentration not listed) | P14416 | 360,000 tested, 0.084% active | DiscoveRx PathHunter D2 beta-arrestin, luminescence, 90 min; 100% = 57 uM dopamine signal; in the data active = activation above about 40%; inconclusive = about 15% to 40%; inactive = below about 15%; also: compound concentration not given in the record; the text of the record calls up to 30% inactive
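DiscoveRx PathHunter D2 beta-arrestin cells (2,100/well) attached overnight, then compound-stimulated 90 min at 37 C in HBSS/10 mM HEPES/0.1% Tween-20 buffer; beta-galactosidase complementation read by luminescence after 1 h at ambient temperature. Dopamine 57 uM final (EC100) as control.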
Six1-Eya2 blk: inhibitors of human Six1/Eya2 interaction; 360,000 tested, 0.56% active; AlphaScreen GST-Six1/His-Eya2 binding, biochemical; stronger effect = lower value; control for the full effect not named in the record; activity change, % (no concentration beside the values); Q15475+O00167; in the data active = activity change below about -65%; inconclusive = about -30% to -65%; inactive = above about -30%; also: % is scaled to controls: 0 for no effect and ±100 for the full control effect; compound concentration not given in the record
Target sequence (O00167 whole entry, looked up): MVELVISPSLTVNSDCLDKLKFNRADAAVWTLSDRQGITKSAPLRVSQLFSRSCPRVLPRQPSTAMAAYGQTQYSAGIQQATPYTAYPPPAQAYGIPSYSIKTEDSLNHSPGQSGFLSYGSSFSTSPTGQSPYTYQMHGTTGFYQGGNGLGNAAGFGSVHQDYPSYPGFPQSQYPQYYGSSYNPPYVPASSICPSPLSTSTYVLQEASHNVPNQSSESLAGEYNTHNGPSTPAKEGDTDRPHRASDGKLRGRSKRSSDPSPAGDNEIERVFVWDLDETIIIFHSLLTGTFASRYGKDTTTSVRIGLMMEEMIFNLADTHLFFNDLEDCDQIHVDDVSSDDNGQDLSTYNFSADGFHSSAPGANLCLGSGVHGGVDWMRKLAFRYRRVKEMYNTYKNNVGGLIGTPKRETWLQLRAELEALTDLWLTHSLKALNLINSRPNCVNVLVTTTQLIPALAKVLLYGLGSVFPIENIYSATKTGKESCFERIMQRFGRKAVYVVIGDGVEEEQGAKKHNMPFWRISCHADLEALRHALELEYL
Target sequence (Q15475 whole entry, looked up): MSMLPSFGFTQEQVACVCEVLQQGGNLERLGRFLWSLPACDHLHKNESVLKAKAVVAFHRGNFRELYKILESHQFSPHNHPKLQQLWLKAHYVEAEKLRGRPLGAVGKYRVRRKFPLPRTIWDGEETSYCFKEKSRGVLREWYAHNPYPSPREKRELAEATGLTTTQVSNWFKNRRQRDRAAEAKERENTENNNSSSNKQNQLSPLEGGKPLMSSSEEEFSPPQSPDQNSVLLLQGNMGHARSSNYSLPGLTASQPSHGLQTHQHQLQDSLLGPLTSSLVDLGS
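GST-Six1 + His-Eya2 (5X stock: 250/500 nM); Tris pH 8.0, 300 mM NaCl, 0.05% BSA, 0.02% Tween 20; GSH donor/Ni acceptor beads; 1 h 37 °C dark; AlphaScreen readout.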
* = called active by the depositor; ? = inconclusive; · = no result given; & = joins results of further samples; [ ] = remark or other dose.

SMILES	TRPML1 blocker	PINK1 expr mod	TRPML1 agonist	CtBP-E1A blk	D2 ag	Six1-Eya2 blk
COc1cccc(NC(=O)Cn2c(=O)oc3cc(S(=O)(=O)N4CCCC4)ccc32)c1	7	-0.2%	0.2	-10	-3.6	-13
O=C(CSc1nnc(NC2CCCCC2)s1)N1CCOCC1	-6	0.0%	-0.3	9	1.5	0
CC(C)CNS(=O)(=O)c1ccc(OCC(=O)NCC2CCCO2)c(Cl)c1 (centres undefined)	11	-3.9%	-0.4	9	-0.7	17
O=S(=O)(c1ccccc1)n1c(C(O)c2ccccn2)cc2ccccc21 (centres undefined)	-12	0.8%	0.0	-1	2.9	-5
Nc1[nH]c(C(=O)c2ccccc2)c(-c2ccccc2Cl)c1C(=O)c1ccccc1	·	6.5%	-0.9	1	·	-16
COc1ccc(NC(=O)CSc2nc(C)cc(C)c2C(=O)Nc2ccccc2OC)cc1	-6	-0.4%	0.1	·	·	·
CCCc1cc(N2CCC(C(N)=O)CC2)nc(-c2ccccc2)n1	11	0.7%	0.3	2	-4.4	-3
Cc1cc(C)c(NC(=O)CN2C(=O)c3cccnc3Oc3ccc(C)cc32)c(C)c1	-12	0.8%	-0.5	·	·	·
Cc1c(CCC(=O)O)c(=O)oc2cc3occ(-c4ccc(F)cc4)c3cc12	7	-1.1%	2.8	?	-0.8	?
Cc1ccc(F)cc1NC(=O)/C=C/c1ccc(S(=O)(=O)N2CCOCC2)cc1	-5	3.4%	0.4	-1	0.1	-2
Cn1c(SCC(=O)N/N=C/c2ccco2)nc2ccccc21	-18	0.4%	0.3	7	3.9	-1
COc1ccc(OC)c2c(=O)cc(C(=O)O)[nH]c12	-6	-0.7%	0.2	-2	1.5	2
CC(=O)c1c(C)[nH]c(C(=O)CSc2ncnc3sc(-c4ccccc4)cc23)c1C	-14	4.2%	0.9	-1	1.0	-3
CC(NS(=O)(=O)/C=C/c1ccccc1)c1ccccc1 (centres undefined)	6	-1.9%	-0.1	10	1.5	4
Cc1cc(C)c2c(N)c(C(=O)Nc3ccccc3Cl)sc2n1	6	9.5%	-0.5	1	0.0	-16
O=C(NCC(c1ccco1)N1CCCC1)c1cn(-c2ccccc2)nc1-c1ccc(F)cc1 (centres undefined)	-7	2.2%	0.4	7	-3.6	-4
CC(=O)c1ccc(NC(=O)Cn2ncc3c4ccccc4n(Cc4ccccc4)c3c2=O)cc1	18	6.4%	3.7	·	·	·
COc1ccc(C(=O)N2CCC2(C)C(=O)NC(C)C)c(OC)c1 (centres undefined)	·	0.4%	-0.2	5	-2.0	1
O=C1[C@H](c2ccccc2)[C@@H](c2ccccc2)N1c1ccncc1	-3	1.4%	-0.3	0	0.3	-7
O=C(NCc1cccc(Br)c1)c1cnn(-c2ccc(F)cc2)c1-n1cccc1	7	1.3%	2.5	·	·	·
O=C1NC(=O)C(Cc2ccc(Cl)cc2)(c2ccccc2)N1 (centres undefined)	-5	11%	1.8	7	3.0	4
Cc1ccccc1C(=O)NNC(=O)Cc1cccc2ccccc12	3	·	-0.2	1	-1.9	-1
O=S(=O)(Nc1ccc2c(c1)OCCO2)c1cccc2cccnc12	-7	1.8%	0.3	25	-0.5	11
O=C(Nc1ccc(F)cc1)c1cccc(N2C(=O)C3C4C=CC(C4)C3C2=O)c1 (centres undefined)	-1	3.0%	-0.1	0	0.1	-3
CCN1C(=O)C2(SC(NC(C)=O)=NN2C(C)=O)c2cc(C)cc(C)c21 (centres undefined)	2	2.9%	-0.9	-2	-9.3	1
Cc1c(C(=O)NCc2ccc(C(F)(F)F)cc2)sc(=O)n1Cc1ccc(S(=O)(=O)N(C)C)cc1	·	-0.9%	0.1	2	12	7
CCN(CC)CCCNC(=S)N(Cc1cccs1)Cc1cc2cc3c(cc2[nH]c1=O)OCCO3	12	-1.5%	0.5	0	0.4	-2
Cc1nc(NCCc2ccc(F)cc2)c(C#N)c(C)c1[N+](=O)[O-]	-17	3.0%	0.3	-4	2.7	-11
COc1ccc(C(CNC(=O)c2ccc(S(=O)(=O)Nc3cccc(C)c3C)cc2)N2CCOCC2)cc1 (centres undefined)	8	3.2%	-0.1	·	4.9	-1
O=C(CSc1nc2ccsc2c(=O)n1Cc1ccccc1Cl)NCc1ccc(Cl)cc1	6	-5.2%	0.2	·	·	·
O=C(NCCCO)C(=O)NCc1ccccn1	8	0.0%	-0.8	13	0.3	-6
COc1ccccc1-n1ncc2c(=O)[nH]c(SCC(=O)Nc3cccc(F)c3)nc21	24	-0.9%	1.9	·	·	·
CC(=O)N1CCOc2cc(S(=O)(=O)NCc3ccccc3Cl)c(C)cc21	32	-0.6%	0.2	·	·	·
COc1ccc(CCC(=O)Nc2ccc3c(c2)OCO3)cc1	14	-0.2%	1.1	-20	-0.8	-2
NC(=S)Nc1ccc(Cl)cc1Cl	4	3.0%	-0.7	-1	-4.1	7
O=S(=O)(NC1CC1)c1ccccc1	24	-0.4%	-0.6	·	2.8	-2
CC(=O)N1CCc2cc(S(=O)(=O)C(C)CC(=O)NCc3ccco3)ccc21 (centres undefined)	8	1.3%	-0.5	3	-8.6	-4
CCSc1nc2c(c(=O)[nH]1)C(c1cccnc1)C(C(=O)OC(C)C)=C(C)N2 (centres undefined)	-12	0.9%	0.2	8	-3.5	-2
CC[C@@H]1CC=C[C@H]2[C@H]1C(=O)N(Cc1ccccc1)[C@H]2c1ccoc1	19	-0.7%	1.6	2	-6.2	-6
COc1ccccc1Oc1ccc2c(c1)C(=O)N(c1cccc3ncccc13)C2=O	38	-0.1%	3.4	-9	-1.9	-8
O=C(N/N=C/c1ccc(-c2ccccc2[N+](=O)[O-])o1)c1cccnc1	-8	-0.4%	2.5	?	5.5	?
COc1ccc(/C=C/C(=O)C2CC2)cc1COc1cccc(C)c1C	59	9.0%	1.5	7	-7.4	3
Cc1ccc(S(=O)(=O)N2CCCCC2)cc1C(=O)NCC1CCCO1 (centres undefined)	-8	-2.1%	0.2	0	2.0	12
COc1ccc(NC(=O)C[C@H]2C(=O)N(C3CCCCC3)C[C@@H]2CSC)cc1	-9	0.2%	-0.4	-28	-8.0	1
Cc1ccc(S(=O)(=O)N2CCCC2C(=O)NCc2ccco2)cc1 (centres undefined)	-10	·	0.3	8	-0.6	2
CCOC(=O)N1CCC(O)(c2cc(C)c(C)cc2C)CC1	17	10%[38.3 µM]	1.4	2	0.2	3
CC(C)(C)c1nc2scc(-c3ccc(Cl)cc3)c2c(=O)o1	10	4.2%	3.6	0	-0.9	2
Cc1nn(CCCC(=O)Nc2ccccn2)c(C)c1[N+](=O)[O-]	9	1.3%	-0.8	1	-1.8	11
CNc1ccc(Br)cc(C(=O)/C=C/c2ccc(OC)cc2OC)c1=O	4	-0.2%	2.9	-1	3.1	-24
Cc1ccc(NC(=O)C2CCCN(c3nnc(C)c4c(C)n(-c5ccccc5)nc34)C2)cc1Cl (centres undefined)	9	-0.6%	2.4	·	·	·
CCOC(=O)c1cc(-c2c(Cl)cccc2Cl)no1	39	0.4%	1.3	15	5.9	12
Fc1ccc(-c2cnn3c(-c4ccncc4)ccnc23)cc1	30	1.8%	1.0	-2	2.0	0
Cc1nc(C2COc3ccccc3O2)sc1C(=O)O (centres undefined)	35	1.0%	1.2	8	-3.7	-1
CN(C)S(=O)(=O)c1cccc2c1C(=O)c1ccccc1C2=O	-1	0.9%	-1.2	0	-3.6	-30
Cc1cc(C)n2c(-c3ccccc3Cl)nnc2n1	27	0.8%	2.5	-7	1.5	2
COC(=O)c1cn(-c2ccccc2)c(=O)c2ccccc12	-14	-0.1%	-0.9	5	2.3	7
c1c(CC2CCCC2)nnn1C[C@H]1CC[C@@H]([C@@H]2CC[C@H](Cn3cc(CC4CCCC4)nn3)O2)O1	-9	0.4%	-0.4	7	-5.1	-8
CCOC(=O)c1c(NC(C)=O)c2c3c(sc2n1Cc1nc(-c2ccccc2Cl)oc1C)CCCC3	-17	-0.6%	2.0	·	·	·
COc1ccc(C2/C=C\CNCC(=O)N2Cc2ccc(F)cc2)cc1 (centres undefined)	-13&-22	-0.4%	0.3&0.9	3	-0.4	-2
CCC(C)n1c(SCc2ccc(F)cc2Cl)nc2ccsc2c1=O (centres undefined)	?	-0.5%	9.6	·	·	·

Shown in markdown: part of the list above
| SMILES | TRPML1 blocker | PINK1 expr mod | TRPML1 agonist | CtBP-E1A blk | D2 ag | Six1-Eya2 blk |
| --- | --- | --- | --- | --- | --- | --- |
| COC(=O)c1cn(-c2ccccc2)c(=O)c2ccccc12 | -14 | -0.1% | -0.9 | 5 | 2.3 | 7 |
| c1c(CC2CCCC2)nnn1C[C@H]1CC[C@@H]([C@@H]2CC[C@H](Cn3cc(CC4CCCC4)nn3)O2)O1 | -9 | 0.4% | -0.4 | 7 | -5.1 | -8 |
| CCOC(=O)c1c(NC(C)=O)c2c3c(sc2n1Cc1nc(-c2ccccc2Cl)oc1C)CCCC3 | -17 | -0.6% | 2.0 | · | · | · |
| COc1ccc(C2/C=C\CNCC(=O)N2Cc2ccc(F)cc2)cc1 (centres undefined) | -13&-22 | -0.4% | 0.3&0.9 | 3 | -0.4 | -2 |
| CCC(C)n1c(SCc2ccc(F)cc2Cl)nc2ccsc2c1=O (centres undefined) | ? | -0.5% | 9.6 | · | · | · |

Next entries
SMILES	TRPML1 blocker	PINK1 expr mod	TRPML1 agonist	CtBP-E1A blk	D2 ag	Six1-Eya2 blk
C/C(=N/NC(=O)CNc1ccc(C)cc1)c1ccc(Br)s1	8	22%[38.3 µM]	1.1	-3	1.3	-3
N#C/C(=C(/O)COC(=O)c1ccc(O)cc1)c1nc2ccccc2[nH]1	·	2.0%	·	?	?	-9
Cc1cc2ccccc2n1CCNC(=O)COc1ccccc1	7	-0.1%	-0.1	-26	-6.4	-9
COC(=O)[C@H](CC(C)C)NC(=O)NC1CCCc2ccccc21 (some centres undefined)	-1	-1.3%	-1.1	2	-1.2	14
C[C@H]1CN([C@@H](C)CO)C(=O)CCCn2nncc2CO[C@@H]1CN(C)C(=O)Nc1ccc2c(c1)OCO2	-4	-1.2%	-0.8	6	1.1	5
CC1CCc2nn(CC(=O)NC3CCCC3)cc2C1 (centres undefined)	41	0.5%	0.0	4	-3.4	7
CCc1ccc(-c2cn3nc(CC)sc3n2)cc1	-10	3.2%	-0.1	·	·	·
COc1ccc(NC(=S)N2CCCC(CO)C2)c(OC)c1 (centres undefined)	-1	0.3%	-0.6	6	2.7	1
O=C(Nc1ccc(N2CCN(C(=O)c3ccc(Cl)cc3)CC2)cc1)c1ccc([N+](=O)[O-])o1	-2	-0.3%	-0.9	-4	9.7	-18
CC12CC3CC(C)(C1)CC(CN1CCOCC1)(C3)C2	4	5.5%	-0.2	-3	-4.4	3
CCOc1cc(/C=N\NC(=O)Cc2ccccc2)ccc1OCC(=O)Nc1ccc(C)c(C)c1	11	-1.2%	-0.4	9	-2.0	4
COc1ccc2nc(NC(=O)c3ccccc3-c3ccccc3C(=O)O)sc2c1	20	0.8%	0.1	0	-6.1	1
O=S(=O)(Nc1cccc(C(F)(F)F)c1)c1cnc[nH]1	11	-1.6%	-1.3	3	-1.2	1

High-throughput results deposited in PubChem BioAssay by National Center for Advancing Translational Sciences (NCATS).
